Assay outcomes: PubChem BioAssay, several laboratories
HIV Env fusion = inhibitors of HIV-1 Env-driven cell-cell fusion, primary screen, HeLa-JRFL effector, CEM21 target cells, luciferase; 1.1% of 360,000 active; inhibition, % at 12.3 µM;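 active = mean replicate inhibition score of at least 50 and every replicate individually at or above 50; inconclusive = only one of the two criteria met; inactive = mean below 50 and not all replicates reaching 50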;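 also: 0% = plate neutral controls and 100% = maraviroc near 300 nM; one replicate is shown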
MT1-MMP act inh = blockers of MT1-MMP proenzyme processing, primary screen, HT1080 RFP-PRO-GFP cells, GFP/RFP fluorescence | Matrix metalloproteinase-14 (Homo sapiens), P50281 | GFP/RFP ratio fluorescence, overnight; percent of plate control window, DMSO zero | GFP/RFP ratio change, % at 20 µM | 0.061% of 360,000 active;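 active = GFP/RFP ratio change of at least 30% with cell ATP level not reduced by more than half and red fluorescence within 50% of control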; also: strong numbers were not always called active
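Assay system: HT1080 RFP-PRO-GFP cells | Dosing: 20 µM single dose, 1% DMSO | Incubation: Cells overnight before dosing, compound overnight, 37 °C, 5% CO2 | Evaluation: GFP/RFP fluorescence ratio | Control set: DMSO-only wells and HT1080 RFP-L50D-GFP cell wells as references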
MT1-MMP act inh RFP = further read-out of MT1-MMP act inh, marked with its call; RFP signal change, %; measured here: RFP expression control read;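 0 = vehicle wells; hits needed this value within 50% of zero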
Active calls of the source: *; i = inactive; ? = inconclusive. This is a subset; rates above refer to the full screens.

SMILES | HIV Env fusion | MT1-MMP act inh | MT1-MMP act inh RFP
CCOc1ccc(CCN2C(=O)C(=O)N([C@@H](Cc3ccccc3)CN3CCC[C@H]3CN3C(=O)C(=O)NC[C@@H]3CC(C)C)C[C@@H]2Cc2ccc(O)cc2)cc1 | 2 | 0 | 1
CCOc1ccccc1N(CC(=O)N1CCN(Cc2ccccc2)CC1)S(=O)(=O)c1ccccc1 | -33 | -2 | -2
Nc1ccc2c(c1Br)Cc1ccccc1-2 | -10 | 4 | 6
C=CC(=O)N1C/C(=C/c2ccccc2)C(=O)/C(=C\c2ccccc2)C1 | 79* | 2 | -30
COC(=O)[C@@]12C[C@@H](CC(=O)NCC34CC5CC(CC(C5)C3)C4)C(=O)N(Cc3ccco3)C1=CCC(C)(C)C2 | 41 | -9 | -11
CC1(C)OC(=O)C2=C(C[C@@H](CCc3ccccc3)O[C@H]2C2CCCC2)O1 | 16 | -5 | -5
CCOC(=O)[C@]12CCCC=C1N(Cc1ccc3c(c1)OCO3)C(=O)[C@H](CC(=O)NCc1cccs1)C2 | -37 | 4 | 3
Cc1ccc(C(=O)N2CCN(Cc3ccccc3)CC2)cc1S(=O)(=O)N1CCOCC1 | -24 | 1 | 0
Cc1cc(=O)oc2cc(O)cc(OCc3ccccc3)c12 | 4 | -1 | -21
COc1ccc(C(=O)OCC(=O)N2CC(=O)Nc3ccccc32)cc1Br | 3 | -1 | 2
O=c1cccc(-c2cccc3ccccc23)o1 | -26 | -4 | 1
O=NN(CCCl)C(=O)NCC1=C[N+](=O)CC=C1 | -81 | 4 | 8
Cc1ccc(S(=O)(=O)N2[C@H](CC(=O)OCc3ccccc3)OC[C@@H]2C)cc1 | -12 | -3 | -8
Cc1cccc(C)c1-n1nnnc1C1c2ccccc2C(=O)N1CCC(C)C (configuration not stated) | 35 | -1 | 1
COc1cc2c(cc1OCc1ccccc1)/C(=C/C(=O)OCc1ccccc1)OC2 | -1 | -3 | 1

Grouped by structure: those above with a carbonyl joined to an NH by a bond outside any ring (3)
SMILES | HIV Env fusion | MT1-MMP act inh | MT1-MMP act inh RFP
COC(=O)[C@@]12C[C@@H](CC(=O)NCC34CC5CC(CC(C5)C3)C4)C(=O)N(Cc3ccco3)C1=CCC(C)(C)C2 | 41 | -9 | -11
CCOC(=O)[C@]12CCCC=C1N(Cc1ccc3c(c1)OCO3)C(=O)[C@H](CC(=O)NCc1cccs1)C2 | -37 | 4 | 3
O=NN(CCCl)C(=O)NCC1=C[N+](=O)CC=C1 | -81 | 4 | 8

Rewritten with values ahead of the structure: 4 of the compounds above.
HIV Env fusion | MT1-MMP act inh | MT1-MMP act inh RFP | canonical_smiles
-1 | -3 | 1 | COc1cc2c(cc1OCc1ccccc1)/C(=C/C(=O)OCc1ccccc1)OC2
35 | -1 | 1 | Cc1cccc(C)c1-n1nnnc1C1c2ccccc2C(=O)N1CCC(C)C (configuration not stated)
41 | -9 | -11 | COC(=O)[C@@]12C[C@@H](CC(=O)NCC34CC5CC(CC(C5)C3)C4)C(=O)N(Cc3ccco3)C1=CCC(C)(C)C2
-26 | -4 | 1 | O=c1cccc(-c2cccc3ccccc23)o1

Other entries follow.
SMILES | HIV Env fusion | MT1-MMP act inh | MT1-MMP act inh RFP
COC(=O)C1(C(=O)OC)C[C@H](/C=C/c2ccccc2)N(Cc2ccccc2OC)[C@@H]1c1ccccc1 | 4 | -8 | -6
COC1=CC(=O)OC(c2ccc(C(F)(F)F)cc2)C1 (configuration not stated) | -10 | 16 | 10
CCCCn1nnnc1C1(C)CCC(=O)N1CC(F)(F)F (configuration not stated) | -20 | 5 | 7
CCOC(=O)[C@]12CCCC=C1N(Cc1cccc3ccccc13)C(=O)[C@H](CC(=O)NCc1cccc(C(F)(F)F)c1)C2 | -10 | -1 | -11
C[C@H](NC(=O)[C@@H]1CCCN1C(=O)[C@@H]1CCCN1C(=O)c1cccs1)c1ccccc1 | -5 | 4 | 3
CCOCc1nc(N)nc(N)c1-c1cccc(Cl)c1 | -45 | 4 | 2
C[C@@H]1COc2cc(N(C)CCO)ccc2S(=O)(=O)N1 | ? | 1 | 5
COC(=O)[C@@]12C[C@@H](CC(=O)N3CCN(C(=O)C4CC4)CC3)C(=O)N(Cc3cccc4ccccc34)C1=CCC(C)(C)C2 | -20 | 1 | -7
CC(C)NC(=O)C1(C)CN(S(C)(=O)=O)CC(=O)N1C1CCCCCC1 (configuration not stated) | 20 | 0 | 5
COCC(=O)N[C@H]1CC[C@@H](CC(=O)OC)O[C@@H]1CO | -17 | 0 | 7
N#CC(C#N)=C1SC(=Nc2ccccc2)C(=Nc2ccccc2)N1c1ccccc1 | 4 | -25 | -23
Clc1ccc(-c2nc3c4ccccc4ccn3c2Cc2ccsc2)cc1 | 65* | 5 | 7
CC(=O)N1CCc2cc(NC(=O)C3(C)CCN3Cc3ccc(C(C)C)cc3)ccc21 (configuration not stated) | -6 | -2 | -6
COc1cccc(CNC(=O)[C@@H]2CCCN2C(=O)[C@H]2CCCCN2C(=O)c2cccs2)c1 | -19 | 4 | 3
CC(C)C[C@H]1COc2cccc(N3CCN(Cc4ccccc4F)CC3)c2S(=O)(=O)N1 | 35 | 4 | 1

4 entries already listed, arranged by their value in MT1-MMP act inh RFP, largest number first.
Molecule,HIV Env fusion,MT1-MMP act inh,MT1-MMP act inh RFP
COC1=CC(=O)OC(c2ccc(C(F)(F)F)cc2)C1 (configuration not stated),-10,16,10
COc1cccc(CNC(=O)[C@@H]2CCCN2C(=O)[C@H]2CCCCN2C(=O)c2cccs2)c1,-19,4,3
COC(=O)C1(C(=O)OC)C[C@H](/C=C/c2ccccc2)N(Cc2ccccc2OC)[C@@H]1c1ccccc1,4,-8,-6
COC(=O)[C@@]12C[C@@H](CC(=O)N3CCN(C(=O)C4CC4)CC3)C(=O)N(Cc3cccc4ccccc34)C1=CCC(C)(C)C2,-20,1,-7

(list continues)
SMILES | HIV Env fusion | MT1-MMP act inh | MT1-MMP act inh RFP
O=C(NC1(C(=O)O)CCCC1)c1ccccc1 | 6 | -2 | 0
CCOC(=O)[C@]12CCCC=C1N(Cc1ccc3c(c1)OCO3)C(=O)[C@H](CC(=O)NCC1CCCCC1)C2 | -74 | 5 | -3
COC(=O)c1ccc2nc(-c3ccccc3)c(Cc3ccccc3C(F)(F)F)n2c1 | 17 | -5 | -4
Cc1cc(C)n2c(Nc3ccc4c(c3)OCCO4)c(-c3cc4ccccc4o3)nc2n1 | -90 | 2 | 1
O=C(Nc1ccc2c(c1)OCCO2)C1c2ccccc2OCC(=O)N1CCCN1CCOCC1 (configuration not stated) | -3 | 0 | 7
COC(=O)C[C@H]1C=C[C@@H](NC(=O)c2ccncc2)[C@@H](CO)O1 | 0 | 0 | 6
COc1ccc(C(C(=O)Nc2ccc(F)cc2)N2CCN(CC(=O)N3CCCC3)CC2)cc1 (configuration not stated) | -8 | -3 | 4
COc1ccccc1Cc1c(-c2ccc(C)cc2)nc2cc(C)c(Br)c(C)n12 | -41 | 4 | 1
Nc1cc([N+](=O)[O-])ccc1OCc1ccccc1 | -11 | -1 | -21
Cc1cccc(C=NOCCc2ccccc2)n1 | -35 | 1 | 3
O=C(NC1CCCC1)C(c1ccco1)N1CCN(c2c(Cl)cncc2Cl)CC1 (configuration not stated) | 16 | -3 | -7
O=C1NC[C@H](CCCCN2C[C@H](Cc3ccccc3)N(CC3CCCCC3)C(=O)C2=O)N(CCc2ccc(O)cc2)C1=O | 1 | 0 | 3
COC(=O)[C@@]12C[C@@H](CC(=O)NCCc3ccccc3OC)C(=O)N(Cc3ccccc3)C1=CCC(C)(C)C2 | 10 | -13 | -22
CC(Cc1ccccc1)=NNS(=O)(=O)c1ccc([N+](=O)[O-])cc1 | 2 | 3 | 3
Oc1ccc(C[C@H]2CNC(=S)N2C[C@H]2CCCN2C[C@H](Cc2ccccc2)N2C[C@H](Cc3ccccc3)N(CC3CCCCC3)C2=S)cc1 | 82* | -4 | -9
CC(C)[C@@H]1Cc2[nH][nH]c(=O)c2[C@H](c2ccc(F)cc2)O1 | -5 | 2 | 2
COC(=O)[C@@]12C[C@@H](CC(=O)NCCCCc3ccccc3)C(=O)N(Cc3ccccc3)C1=CCC(C)(C)C2 | 10 | -6 | -17
CC1(c2nnnn2Cc2ccccc2)CCC(=O)N1c1ccc(N2CCOCC2)cc1 (configuration not stated) | -5 | 3 | 2
CCOC(=O)[C@]12CCCC=C1N(CCC1=CCCCC1)C(=O)[C@H](CC(=O)NCc1ccc(OC)c(OC)c1)C2 | 71* | 2 | 1
O=C(O)c1ccc(NCc2nc3cc4ccccc4cc3[nH]2)cc1 | i | 6 | 4
CCCCNC(=O)C1C(c2ccccc2)=Nc2ccccc2N1C(=O)c1ccc(C)cc1 (configuration not stated) | -18 | -3 | -6
O=C1CCN(Cl)C(=O)N1Cl | -6 | 7 | 9
COc1ccc(C(C(=O)NCc2ccccc2)n2c(-c3ccccn3)nc3ccccc32)cc1 (configuration not stated) | -22 | 0 | -4
CN(C)CCCN1c2ccccc2Sc2ccc3ccccc3c21 | -2 | -10 | -3
COc1ccc(Cc2c(-c3ccc(OC)c(OC)c3)nc3cc(C)c(Br)c(C)n23)c(C)c1 | 9 | 3 | -6
OCCN(CCO)c1cc2c3ccccc3ccc2c2ccccc12 | 39 | 3 | 4
CCCCn1nnnc1C(c1cc2ccccc2o1)N(CCC#N)Cc1ccccc1 (configuration not stated) | 34 | -8 | -14
Cc1onc(-c2ccccc2)c1C(=O)N1CCC(C)(C(=O)NS(=O)(=O)C2CC2)C1 (configuration not stated) | -15 | 7 | 8
COc1ccc2cc(C3=CC(=O)CC(C)(C)C3=O)ccc2c1 | -34 | 3 | 3
O=S1(=O)CC(N2CC=CC2)CN1Cc1cn(Cc2ccc(Cl)cc2)nn1 (configuration not stated) | -38 | 1 | 3
CCCCN(C(=O)c1cc2c(s1)CCC2)c1c(N)n(CCC)c(=O)[nH]c1=O | 0 | 0 | 4
CC1=C(C(=O)N2CCCCCC2)CC(CC(=O)NCc2cccs2)C(=O)N1CCC1=CCCCC1 (configuration not stated) | -9 | 3 | 0
COc1cc2c(cc1OC)C(c1c(-c3c(Cl)cccc3Cl)noc1C)=NCC2 | -9 | 4 | -7
O=C1NC[C@H](CCCCN2CCN(CCc3ccccc3)C(=O)C2=O)N(CCc2ccccc2)C1=O | 16 | 2 | 1
Cc1nc(NC(=O)C(C)(C)C)sc1-c1csc(N)n1 | -20 | 2 | 1
O=C(NCc1ccccc1)C(c1ccc(F)cc1)N1CCN(CCN2CCOCC2)CC1 (configuration not stated) | 22 | 6 | -12
CC(C)(C)n1nnnc1C(c1ccccc1)N1CCN(c2ccc(F)cc2)CC1 (configuration not stated) | -21 | 3 | 0
COC(=O)[C@]12CCCCC=C1N(Cc1ccco1)C(=O)[C@H](CC(=O)NCC13CC4CC(CC(C4)C1)C3)C2 | -38 | -2 | -7
COc1cc(/C=C2\CCC(C)C3=C(c4cc(OC)c(OC)c(OC)c4)C(C#N)=C(N)OC32)cc(OC)c1OC (configuration not stated) | -64 | -125 | -5
COc1ccc(NC(=O)c2oc3ccccc3c2NC(=O)c2ccc(OC)c(OC)c2)c(OC)c1 | -7 | 1 | 2
CC(C)C[C@@H]1Cc2[nH][nH]c(=O)c2[C@H](c2ccc(Cl)cc2)O1 | -71 | 9 | 6
CC(Sc1nc2ccccc2c(=O)n1CCCN1CCOCC1)C(=O)N1CCc2ccccc21 (configuration not stated) | 4 | 5 | 5
O=S1c2ccccc2Oc2ccccc21 | 14 | 1 | 2
O=C(NC1CCCCC1)C1c2ccccc2OCC(=O)N1CCc1ccccc1 (configuration not stated) | -20 | 5 | 4
CCOC(=O)[C@]12CCCC=C1N(CCc1ccc(OC)c(OC)c1)C(=O)[C@H](CC(=O)NCc1ccc(C)o1)C2 | -7 | -2 | -1
CCCCCCn1cc(CN2CC(N3CCCC3)CS2(=O)=O)nn1 (configuration not stated) | -9 | 5 | 8
O=C(NC1CCCCC1)C(C1CC1)n1c(=O)c(-c2ccccc2)nc2ccccc21 (configuration not stated) | -7 | -10 | -8
C=CCC(=O)N1CCC(n2nccc2NC(=O)c2ccc3c(c2)OCO3)CC1 | -9 | -4 | 3
Cc1cc(C(=O)c2ccccc2)cc(C)c1O | -31 | 5 | 3
